Assay outcomes: PubChem, ICCB-Longwood Screening Facility, Harvard Medical School
MgrA-DNA mod = S. aureus MgrA-DNA binding modulation | fluorescence polarization | inhibition, %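 (about 10 µg/mL by stock and volumes)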 | 0.13% of 84,000 active | AID 602314;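 active means above 50% in either of two replicates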;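 further: 0% = protein plus DNA without compound and 100% = DNA alone without protein; higher means less MgrA bound to DNA so lower polarization; one replicate is shown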
Sa helicase inh = S. aureus DNA helicase inhibition. purified S. aureus helicase, fluorescence unwinding assay; about half of the hits fall short of the stated cut. inhibition, %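 (tested at about 80 µM)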. 0.05% of 120,000 active;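 active means both duplicates at 50% or more, or one of them with a favoured structure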;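 further: 0% = mean of negative control wells and 100% = mean of positive control wells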
Numbers without * were called inactive; & = joins results of further samples. This is a subset. The share of hits here may be higher or lower than overall.

The opening four compounds as a preview:
Cc1cc(N2CC(=O)N(CCc3ccccc3)C(=O)C2)n2ncnc2n1 was read as Sa helicase inh 11.0.
For CC1CC(=O)N(Cc2ccccc2F)c2ccccc2S1(=O)=O (stereo unspecified) the results were Sa helicase inh 20.0.
For CCOC(=O)c1cc(C#N)c(=S)[nH]c1N the results were Sa helicase inh -1.0.
Screening O=CN1CCN(C(=O)CCc2ccccc2)CC1 returned MgrA-DNA mod -0.1 and Sa helicase inh 13.0.

The list itself, previewed entries included:
Cc1cc(N2CC(=O)N(CCc3ccccc3)C(=O)C2)n2ncnc2n1 was read as Sa helicase inh 11.0.
For CC1CC(=O)N(Cc2ccccc2F)c2ccccc2S1(=O)=O (stereo unspecified) the results were Sa helicase inh 20.0.
For CCOC(=O)c1cc(C#N)c(=S)[nH]c1N the results were Sa helicase inh -1.0.
Screening O=CN1CCN(C(=O)CCc2ccccc2)CC1 returned MgrA-DNA mod -0.1 and Sa helicase inh 13.0.
Cc1ccc(CN(C)c2nc(CN3CCOCC3)nc3sc4c(c23)CCC4)o1 was read as Sa helicase inh 16.0.
For Cc1cccc2cc(CN(CCO)S(=O)(=O)c3ccc(Cl)cc3)c(=O)[nH]c12 the results were MgrA-DNA mod -0.7 and Sa helicase inh 5.0.
Screening CC(Sc1ccc(Cl)cc1)C(=O)NCC1CCCO1 (stereo unspecified) returned MgrA-DNA mod -0.1 and Sa helicase inh 0.0.
For O=C(CC1CCCCC1)Nc1ccc(N2CCOCC2)cc1N1CCOCC1 the results were Sa helicase inh -2.0.
`FC(F)(F)c1[nH]ncc1-c1nnnn1-c1ccccc1` gave Sa helicase inh 20.0.
Screening Fc1ccc(-c2cn3ccccc3n2)cc1 returned MgrA-DNA mod -0.1 and Sa helicase inh -8.0.
`O=C(CCN1C(=O)C2CC=CCC2C1=O)NCc1ccccc1` (stereo unspecified) gave MgrA-DNA mod 2.0 and Sa helicase inh -21.0.
`O=C(COC(=O)C12CC3CC(CC(O)(C3)C1)C2)c1ccc[nH]1` gave Sa helicase inh -13.0.

An excerpt from above in order of heavy-atom count, lowest first:
For CCOC(=O)c1cc(C#N)c(=S)[nH]c1N the results were Sa helicase inh -1.0.
Screening O=CN1CCN(C(=O)CCc2ccccc2)CC1 returned MgrA-DNA mod -0.1 and Sa helicase inh 13.0.
Screening CC(Sc1ccc(Cl)cc1)C(=O)NCC1CCCO1 (stereo unspecified) returned MgrA-DNA mod -0.1 and Sa helicase inh 0.0.
For Cc1cccc2cc(CN(CCO)S(=O)(=O)c3ccc(Cl)cc3)c(=O)[nH]c12 the results were MgrA-DNA mod -0.7 and Sa helicase inh 5.0.
For O=C(CC1CCCCC1)Nc1ccc(N2CCOCC2)cc1N1CCOCC1 the results were Sa helicase inh -2.0.

Remaining list, next part.
Screening CCCNC(=O)c1nn(C)c2c1CCc1sccc1-2 returned Sa helicase inh 9.0.
Screening c1ccc(-c2cc3ccccc3nn2)cc1 returned MgrA-DNA mod -2.1.
Cc1ccc2c(c1)c(-c1ccccc1)c(-c1ccccc1)n2CC(O)CNCc1ccco1 (stereo unspecified) was read as MgrA-DNA mod -0.4 and Sa helicase inh -14.0.
Screening COC(=O)c1cccc(COC(=O)c2cc(=O)[nH]c3ccccc23)c1 returned MgrA-DNA mod -0.3 and Sa helicase inh 15.0.
O=C(NCC1CCCO1)c1ccc2c(c1)sc1nc(-c3ccccc3)cn12 (stereo unspecified) was read as MgrA-DNA mod -0.7 and Sa helicase inh -1.0.
Screening O=C(COc1ccccc1C(=O)NCc1ccccc1)Nc1cccc2nsnc12 returned Sa helicase inh 11.0.
`CCCN1CCN(CCCNC(=O)CN2C(=O)C(c3ccccc3)Oc3cccnc32)CC1` (stereo unspecified) gave Sa helicase inh -9.0.
`O=C(O)CCCc1nc(-c2ccccn2)no1` gave MgrA-DNA mod -2.0.
CCOC(=O)c1c(C=O)oc2c(C)cc(OC(=O)c3cccs3)c(Br)c12 was read as MgrA-DNA mod 0.3.
For Cc1ccc(-c2oc(N)c(C#N)c2-c2ccc(C)cc2)cc1 the results were MgrA-DNA mod -5.9 and Sa helicase inh -3.0.
For O=C(Nc1ccccc1)Nc1ccccn1 the results were MgrA-DNA mod -2.2 and Sa helicase inh 11.0.
For c1cnc(-c2nnc3sc(C45CC6CC(CC(C6)C4)C5)nn23)cn1 the results were MgrA-DNA mod -0.6 and Sa helicase inh -2.0.
O=C(CN1C(=O)/C(=C\C=C\c2ccccc2)SC1=S)Nc1ccc(F)cc1 was read as Sa helicase inh -22.0.
`Cc1ccc(-n2nnc3ccccc3c2=O)cc1C` gave MgrA-DNA mod 1.9.
`CC1CN(c2ccc(NC(=S)Nc3ccc(N4CC(C)OC(C)C4)cc3)cc2)CC(C)O1` (stereo unspecified) gave MgrA-DNA mod 0.0.
For O/N=C/c1c(-c2ccccc2Cl)[nH]c2ccccc12 the results were MgrA-DNA mod -2.6.
`CNc1ccc(Br)cc1-c1nc2cc3ccccc3cc2n(C)c1=O` gave MgrA-DNA mod -0.1.
For O=C(Nc1ccc(-c2ccc(N3CCCCC3)nn2)cc1)C(F)(F)F the results were Sa helicase inh -11.0.
`CCOC(=O)c1ccc(N2Cc3ccccc3C2)cc1` gave Sa helicase inh -20.0.
Cc1nc(Sc2nc3ccccc3o2)c2c3c(sc2n1)CCCC3 was read as Sa helicase inh 12.0.
For O=C(NC(Cc1ccccc1)C(=O)O)c1cccs1 (stereo unspecified) the results were Sa helicase inh -20.0.
`CN(C)c1ccc(/C=C2\CCC=C2N2CCOCC2)cc1` gave Sa helicase inh -245.0.
CC(c1ccccc1)n1c(SCC(=O)c2cc(-c3ccccc3)no2)n[nH]c1=O (stereo unspecified) was read as Sa helicase inh -17.0.
Screening Cc1cn(CCC(=O)Nc2ccccc2N2CCOCC2)c2ccccc12 returned MgrA-DNA mod 0.0.
For Cc1cc(NC(=O)CC#N)n(-c2ccccc2)n1 the results were Sa helicase inh -20.0.
`Cc1nn(CCCC(=O)NC2CCCCC2C)c(=O)c2cc3sccc3n12` (stereo unspecified) gave Sa helicase inh 21.0.
Screening O=C(CN1CCCc2ccccc21)N1CCc2ccccc21 returned MgrA-DNA mod 1.3.
COc1cccc(NC(=S)NC(C)(C)C)c1 was read as MgrA-DNA mod 0.7 and Sa helicase inh 3.0.
`CC1=C(C#N)C2(O)C(=O)c3ccccc3C2(O)N1` (stereo unspecified) gave MgrA-DNA mod 1.3 and Sa helicase inh 8.0.
`COc1ccc(-c2csc(-c3ccc(OC)cc3)n2)cc1` gave MgrA-DNA mod 1.1.
Screening Cc1nc2nc[nH]n2c(=O)c1NC(=O)NC1CCCC1 returned Sa helicase inh 19.0.
CCOC(=O)c1c(C)noc1-c1csc(Nc2ccc(Cl)cc2)n1 was read as MgrA-DNA mod -0.8.
For O=C1CCCC(O)=C1N=Nc1ccc2ncsc2c1 the results were Sa helicase inh 16.0.
For CCOC(=O)c1ccc(-c2nnc(COc3cccc(C)c3)o2)cc1 the results were Sa helicase inh 4.0.
For O=C(O)Cc1ccc(O)cc1 the results were MgrA-DNA mod 0.0 and Sa helicase inh 13.0.
Screening CC(C(O)c1ccc(O)cc1)N1CCC(Cc2ccccc2)CC1 (stereo unspecified) returned MgrA-DNA mod 0.9.
For CN(C)S(=O)(=O)c1ccc(C(=O)Nc2ccnn2C2CCCCC2)cc1 the results were Sa helicase inh -2.0.
`C[C@@H]1CC[C@H]2C(C)(C)C3CC12CCC3(C)O` (stereo partly specified) gave Sa helicase inh -15.0.
Fc1ccc(C(c2nnc(-c3ccccc3)o2)N2CCc3ccccc3C2)cc1 (stereo unspecified) was read as Sa helicase inh 13.0.
Screening CC(=O)N1CCN(CC(O)COc2ccc(Br)cc2)CC1 (stereo unspecified) returned MgrA-DNA mod -1.3 and Sa helicase inh 3.0.
For COC(=O)c1ccc(COc2ccc(/C=N\O)cc2)o1 the results were Sa helicase inh -11.0.
Screening O=C(/C=C/c1ccc(Br)cc1)Nc1ccccn1 returned Sa helicase inh -40.0.
For Cc1sc(NC(=O)C(C)Oc2ccc(Cl)cc2Cl)c(C(N)=O)c1C (stereo unspecified) the results were MgrA-DNA mod 5.3 and Sa helicase inh 16.0.
For Clc1nc2ccccc2nc1-c1ccccc1 the results were Sa helicase inh 8.0.
For Cc1ccc(C(=O)CCCn2nnc(-c3ccncc3)n2)cc1C the results were MgrA-DNA mod 17.6 and Sa helicase inh -3.0.
`COC(=O)c1ccccc1SC(CC(=O)c1ccccc1)c1ccc(F)cc1` (stereo unspecified) gave MgrA-DNA mod -1.3.
For Cc1ccc(CNc2ccc(N3CCOCC3)cc2)cc1 the results were MgrA-DNA mod -1.9 and Sa helicase inh 2.0.
O=C(O)CSc1ncnc2c1nnn2Cc1ccccc1F was read as Sa helicase inh -4.0.
O=c1cc(O)nc(SCc2c(Cl)cccc2Cl)[nH]1 was read as MgrA-DNA mod -0.9.
For C1CCC(CN2CCOCC2)CC1 the results were MgrA-DNA mod 1.2 and Sa helicase inh 6.0.
`O=C(O)CSc1nnnn1-c1ccccc1` gave Sa helicase inh -24.0.
For COc1ccc(CCNc2nnc(-c3ccccc3)c(=O)n2C)cc1OC the results were Sa helicase inh 4.0.
Cc1nn(CCC(N)=O)c2nc(-c3cccnc3)cc(C(F)(F)F)c12 was read as MgrA-DNA mod -5.1 and Sa helicase inh 15.0.
`Cc1onc(-c2c(Cl)cccc2Cl)c1C(=O)NC(C)(C)CO` gave MgrA-DNA mod 2.4 and Sa helicase inh 6.0.
Screening CC1CCCCN1C(=O)Cc1ccc(Br)cc1 (stereo unspecified) returned MgrA-DNA mod 0.4 and Sa helicase inh 24.0.
For O=C(OCc1cc(=O)oc2cc3c(cc12)CCC3)c1ccccn1 the results were Sa helicase inh 6.0.
`C=CCOC(=O)c1cc(-c2ccc(/C=C3/NC(=S)NC3=O)o2)ccc1Cl` gave Sa helicase inh -56.0.
`CC(SCC(=O)Nc1ccc(F)cc1)C(=O)O` (stereo unspecified) gave Sa helicase inh -3.0.
For N/C(Cc1csc2ccccc12)=N\O the results were MgrA-DNA mod -2.5.
COc1ccc2oc3cc(C)nc(-c4ccccc4)c3c2c1 was read as MgrA-DNA mod 0.0 and Sa helicase inh 2.0.
For CCN1C(=O)C(=Nc2ccc(S(=O)(=O)N3CCOCC3)cc2)c2ccccc21 the results were Sa helicase inh 12.0.
`COc1ccc(NNC(=O)C(O)(c2cccc(OC)c2)c2cccc(OC)c2)cc1` gave MgrA-DNA mod 1.6 and Sa helicase inh 6.0.
`CSc1nnc2c3ccccc3n(Cc3ccccc3)c2n1` gave MgrA-DNA mod 1.5 and Sa helicase inh 6.0.
Screening O=C(OCc1cccc(C(F)(F)F)c1)C1COc2ccccc2O1 (stereo unspecified) returned Sa helicase inh 11.0.
Screening CC(=O)Nc1ccc(S(=O)(=O)n2cc(C)nc2-c2ccccc2)cc1 returned MgrA-DNA mod -2.2 and Sa helicase inh 0.0.
CC(NC(=O)c1cccnc1Cl)c1nc(-c2ccncc2)n[nH]1 (stereo unspecified) was read as MgrA-DNA mod -0.9 and Sa helicase inh 4.0.
Screening CCn1ccc(C(=O)Nc2nccs2)n1 returned MgrA-DNA mod -0.2 and Sa helicase inh 8.0.
O=S(=O)(c1ccc(-c2cc(C(F)(F)F)on2)s1)N1CCC(O)(c2ccc(Cl)cc2)CC1 was read as Sa helicase inh -4.0.
For CCNC(=O)c1ccc2c(c1)sc1nc(-c3ccccc3)cn12 the results were MgrA-DNA mod -1.3 and Sa helicase inh -9.0.
O=C(Nc1nc(-c2ccncc2)cs1)c1ccc(Br)s1 was read as Sa helicase inh 4.0.
For COc1ccc(N(C)S(=O)(=O)c2c(C)[nH]c(=O)[nH]c2=O)cc1 the results were MgrA-DNA mod -2.8 and Sa helicase inh 4.0.
CCN(CC)C(=O)CSc1nnc(Cc2ccccc2)n1CC was read as MgrA-DNA mod 1.4 and Sa helicase inh 2.0.
Screening CCc1nc(-c2ccc(OC)cc2)cc2cc(OC)c(OC)cc12 returned MgrA-DNA mod 0.7 and Sa helicase inh 1.0.
`O=C1CSCC(=O)N1Cc1ccncc1` gave MgrA-DNA mod -1.9.
For O=C(NC(=O)c1cccs1)OC[C@@H]1CCCN2CCCCC12 (stereo partly specified) the results were MgrA-DNA mod 1.8 and Sa helicase inh -3.0.
C=CCNC(=O)CSc1nnc(C(CC)N(C)C)n1C1CCCCC1 (stereo unspecified) was read as Sa helicase inh -14.0.
For COc1cccc([C@@H]2Nc3ccc(S(=O)(=O)Nc4ccccc4)cc3[C@@H]3C=CC[C@@H]32)c1 the results were Sa helicase inh -9.0.
O=c1[nH]c(SCc2ccccc2)nc2c1cnn2-c1ccccc1 was read as Sa helicase inh 19.0&3.0.
O=C(c1cc2c(s1)-c1ccccc1OC2)N1CCCC1 was read as MgrA-DNA mod 2.1 and Sa helicase inh 5.0.
`O=C(O)/C=C/c1ccc2c(c1)CCC2` gave MgrA-DNA mod -2.3.
Screening Oc1ccc(/C=C/c2ccncc2)cc1 returned Sa helicase inh 0.0.
Screening CCCCn1c(N)c(N2CCC(C(N)=O)CC2)c(=O)[nH]c1=O returned Sa helicase inh 3.0.
Screening Cc1cccc(OCc2nnc(SCC(=O)N3CC(=O)Nc4ccccc43)o2)c1 returned Sa helicase inh -16.0.
`COc1ccc(-c2noc(N(C)CC(=O)Nc3cc(Cl)c(OC)cc3OC)n2)cc1` gave Sa helicase inh -15.0.
For Cc1nc2ccc(NC(=O)c3ccccc3C(F)(F)F)cc2o1 the results were MgrA-DNA mod -2.0.
Screening COc1ccc(-c2onc(C)c2C)cc1S(=O)(=O)N(C)CC1COc2ccccc2O1 (stereo unspecified) returned Sa helicase inh 9.0.
C[C@]12CCC3c4ccc(O)cc4CCC3C1CC[C@@H]2OC(=O)CCC1CCCC1 (stereo partly specified) was read as MgrA-DNA mod -2.2.
For COc1cc(S(=O)(=O)NCCc2c[nH]c3ccccc23)ccc1-n1cnnn1 the results were MgrA-DNA mod 0.0 and Sa helicase inh 22.0.
